Bioassay records deposited in PubChem by ICCB-Longwood Screening Facility, Harvard Medical School.
Vaccinia pol inh – blocks vaccinia virus processive DNA synthesis. 46,000 compounds, 0.94% hits. normalized absorbance, % (test concentration not listed). in vitro processive DNA synthesis, absorbance read-out; stronger effect = lower value; some inactives read as strong as hits;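 active = replicate mean up to 90% and picked by the depositor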;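 also: 100% = median of the test wells of a plate; 100 nL library stock went into each well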
Numbers without * were called inactive. A portion of the library (hit frequency here may not be typical).

SMILES	Vaccinia pol inh
O=C(Oc1ccc(Cl)cc1Cl)c1cccnc1SCCS(=O)(=O)c1ccccc1	104.5
COc1cccc(NC(=O)c2ccc3c(SCC(=O)O)c4c(nc3c2)CCCC4)c1	97.7
O=S(=O)(NC(=NCCc1ccccn1)Nc1cccc(Cl)c1)c1ccccc1	108.9
CCOc1ccc2nc(SCc3c[nH]c4ccccc34)sc2c1	100.1
NC(N)=NCCn1ccc2ccccc21	100.4
Cc1csc(NC(=O)C(C)Oc2ccccc2)n1 (stereo not drawn)	92.8
Cc1ccc(-c2noc(CN(C(=O)NC3CCCCC3)C(C)C)n2)cc1	103.5
Cc1cc(C)cc(Oc2coc3c(CN4CCCCCC4)c(O)ccc3c2=O)c1	100.5
COC(=O)Oc1cc2oc(=O)sc2cc1Cl	100.3
O=C(Nc1ccccc1)c1nnn(Cc2ccccc2)c1NC(=O)C(F)(F)F	100.4
CC1CCCN(C(=O)CCS(=O)(=O)c2cc(Br)cc3c2N(C(=O)C2CC2)CC3)C1 (stereo not drawn)	97.8
O=C(COC(=O)c1ccc2ccccc2n1)c1ccc(Cl)c(Cl)c1	100.1
Cc1ccc(S(=O)(=O)/N=C(\NN(C)C)c2ccccc2)cc1	107.1
c1ccc(-c2nnc3n2N=C(c2cccs2)CS3)cc1	88.9
COC(=O)Cn1c2ccc(Cl)cc2c2nc3ccccc3nc21	100.0
O=C(NCc1ccccc1)c1ccc(CSCc2cccc(Cl)c2)o1	96.7
CC(O)c1nc2ccccc2n1CC(=O)N(c1ccccc1)C(C)C (stereo not drawn)	97.4
CCC(=Nc1ccccc1N)c1c(O)[nH]c(=O)[nH]c1=O	101.9
Cc1sc2c(c1C)CSC(C(=O)NCCc1ccccc1)=C2	89.5
COc1ccc2c(CNCC(C)c3ccccc3)c(C(=O)O)n(Cc3ccc(F)cc3)c2c1 (stereo not drawn)	104.4
O=C(OC1COC(c2ccc(Br)cc2)OC1)c1ccc(Br)cc1 (stereo not drawn)	100.2
O=C(Nc1cccc(Cl)c1)Nc1ccc2c(c1)oc1ccccc12	101.3
O=C(NCCc1ccccc1)C1CCC(=O)N1C1CCCCC1 (stereo not drawn)	99.9
CC(C)(C)c1cc2nc(C(F)(F)F)cc(N3CCN(c4ccc(C(F)(F)F)cn4)CC3)n2n1	101.8
O=C(CSc1nc2ccccc2n1CCc1ccccc1)NC1CC1	100.8

Four compounds already listed, arranged by length of the SMILES, low to high.
SMILES	Vaccinia pol inh
NC(N)=NCCn1ccc2ccccc21	100.4
COC(=O)Oc1cc2oc(=O)sc2cc1Cl	100.3
COc1cccc(NC(=O)c2ccc3c(SCC(=O)O)c4c(nc3c2)CCCC4)c1	97.7
CC(C)(C)c1cc2nc(C(F)(F)F)cc(N3CCN(c4ccc(C(F)(F)F)cn4)CC3)n2n1	101.8

(next part)
SMILES	Vaccinia pol inh
O=S(=O)(c1ccccc1)N1CCCC1c1cccnc1 (stereo not drawn)	86.5
C=C(C)C(=O)N1C(=O)OCC1c1ccccc1 (stereo not drawn)	96.0
CCS(=O)(=O)NCc1ccc2[nH]c3c(c2c1)CCCC3	101.6
Cc1ccc(-n2ncc(N(C)n3cccc3)c(Cl)c2=O)cc1	100.9
CN1CCc2c(sc(NC(=O)c3ccco3)c2C(N)=O)C1	100.1
CCc1ccc(N=Cc2c(O)n(-c3ccccc3)c(=O)c3ccccc23)cc1	100.2
COc1ccc(-c2ncc3ccccn23)cc1	81.9
Cn1c(=O)n(C)c2cc(S(=O)(=O)NC3CCCCC3)ccc21	99.7
COc1cccc(C(=O)N2CCC(C(=O)N3CCOCC3)CC2)c1	102.4
O=C(Cc1cccs1)Nc1nnc(Cc2ccccc2)s1	110.1
COc1cccc(Oc2coc3cc(OC(=O)N(C)C)ccc3c2=O)c1	101.9
CCOc1ccc(C(=O)NC2CC2)cc1	103.0
CCCn1cnc2ccccc21	95.8
CCC(c1ccc(O)cc1)C(CC)c1ccc(O)cc1 (stereo not drawn)	93.8
O=C(c1cc2ccccc2oc1=O)N1CCSC1c1cccc(Cl)c1 (stereo not drawn)	94.7
Cc1ccc2c(c1)c(=O)c(C(=O)O)cn2C	100.3
COc1ccc2nc3sc(C(=O)O)cc3cc2c1	86.6
CC1(C)CC2CC(C)(CN2C(=O)COC(=O)c2ccccc2)C1 (stereo not drawn)	99.5
CCOC(=O)N1CCN(C(=O)CN(c2cc(C(F)(F)F)ccc2Cl)S(C)(=O)=O)CC1	100.2
O=C(NCCC1=CCCCC1)C1COc2ccccc2O1 (stereo not drawn)	93.1
CC1CCN(C(=O)COC(=O)c2ccc(OC(F)(F)F)cc2)CC1	103.8
CCOC(=O)NC(=S)c1ccc(OC)cc1	99.1
CCC(C)NC(=O)CSc1nc2ccsc2c(=O)n1Cc1ccc(OC)cc1 (stereo not drawn)	101.0
O=C(NCc1cccs1)c1ccccc1NC(=O)C(F)(F)F	99.6
Cc1ccc(CSCc2ccc(C(=O)NC3CCCC3)o2)cc1	99.1

The list goes on; it opens with the 6 that closed the last part.
SMILES	Vaccinia pol inh
O=C(NCCC1=CCCCC1)C1COc2ccccc2O1 (stereo not drawn)	93.1
CC1CCN(C(=O)COC(=O)c2ccc(OC(F)(F)F)cc2)CC1	103.8
CCOC(=O)NC(=S)c1ccc(OC)cc1	99.1
CCC(C)NC(=O)CSc1nc2ccsc2c(=O)n1Cc1ccc(OC)cc1 (stereo not drawn)	101.0
O=C(NCc1cccs1)c1ccccc1NC(=O)C(F)(F)F	99.6
Cc1ccc(CSCc2ccc(C(=O)NC3CCCC3)o2)cc1	99.1
COc1ccc(OC)c(-c2cc(C(N)=O)on2)c1	99.9
c1ccc(C2N3CCCN2CC3)cc1 (stereo not drawn)	99.5
O=C1CCCC(O)=C1C=Nc1cccc(Cl)c1Cl	105.7
Cn1c(-c2ccccc2)c(/C=C2/C(=O)Oc3ccccc3C2=O)c2ccccc21	100.0
CC(NC(=O)CC12CC3CC(CC(C3)C1)C2)C(=O)O (stereo not drawn)	100.0
O=c1cc(-c2ccccc2)nc2c(n1)NON2	98.2
COc1ccc(C2C(C(=O)N3CCCCC3)c3ccccc3C(=O)N2Cc2ccc(F)cc2)cc1 (stereo not drawn)	88.1
N#Cc1ccc(OC(=O)Cn2c(C(F)(F)F)nc3ccccc32)cc1	113.7
CCCNC(=O)NC1CCN(c2ncc(C(F)(F)F)cc2Cl)CC1	101.2
CCCCN(C(=O)c1ccccc1)C1CC2CCC(C1)N2C (stereo not drawn)	99.3
Cc1cc(C)c2c(n1)sc1c(N3CCOCC3)ncnc12	110.4
COc1ccccc1Nc1c2c(nc3ccc(NC(=O)/C=C/c4cccs4)cc13)CCCC2	106.8
O=C(Oc1cccc(C(F)(F)F)c1)c1cc2ccc3ccccc3c2s1	113.5
O=c1c(C=NCc2ccco2)c(CSc2ccc(Cl)cc2)[nH]n1-c1nc2ccccc2s1	99.9
CCN1C(=O)/C(=C/c2ccco2)NC1=S	100.2
COC(=O)c1sccc1S(=O)(=O)N1CCN(c2ncnc3c(C)csc23)CC1	117.6
O=C1CC(=O)N(/N=C2\C(=O)Nc3ccccc32)C(=S)C1	97.8
COC(=O)c1cccnc1SC	96.0
CCN1C(=O)CSC1=Nc1cccc(C(=O)O)c1	100.4
COC(=O)c1ccccc1N(C)C(=O)c1cccc(S(=O)(=O)N2CCCCC2)c1	102.1
NCCC(=O)OCC1CCCN2CCCCC12 (stereo not drawn)	99.9
O=C1c2ccccc2C(=O)c2c1ncn2Cc1ccccc1	100.0
COc1ccc(C(=O)COC(=O)CCc2nc3ccccc3[nH]c2=O)cc1Br	105.3
COC(=O)c1ccc(C2C(Oc3ccccc3)C(=O)N2CCc2ccc(OC)c(OC)c2)cc1 (stereo not drawn)	94.2
O=C(NCc1ccccc1)c1ccc(CS(=O)c2ccccc2)o1 (stereo not drawn)	103.3

Shown bar-delimited: entries from further up
SMILES | Vaccinia pol inh
COc1ccc(C2C(C(=O)N3CCCCC3)c3ccccc3C(=O)N2Cc2ccc(F)cc2)cc1 (stereo not drawn) | 88.1
CCN1C(=O)/C(=C/c2ccco2)NC1=S | 100.2
CCOc1ccc(C(=O)NC2CC2)cc1 | 103.0

The results go on:
SMILES	Vaccinia pol inh
CCc1cccc(NC(=O)C2c3ccccc3Oc3ccccc32)c1	100.6
N#CCC(=O)NCCc1ccccc1	102.4
FC(F)(F)c1cc(-c2ccccc2)nc2c(-c3ccccc3)cnn12	100.2
C=CCC1NCCc2c(Br)cccc21 (stereo not drawn)	100.3
CC(C)NC(=O)c1ccc(CS(=O)(=O)c2c(Cl)cccc2Cl)o1	98.1
CCCCN1CCc2c1nc1ccc(Br)cc1c2N	87.0*
Cc1ccc(-n2c(SCC(=O)N3CCCCC3)nc3c([nH]c4ccccc43)c2=O)cc1	96.2
COC(=O)C1=C(C)NC(S)=C(C#N)C1c1cccnc1 (stereo not drawn)	96.4
Cc1cccc(C)c1NC1=NCCCS1	100.0
C[C@]1(O)NC([S-])=C(C#N)C(c2ccc(Cl)cc2)C1[n+]1ccccc1 (stereo partly drawn)	98.8
C=CCNC(=O)CCN1C(=O)COc2ccccc21	106.4
CSC(=Nc1cccc(C(F)(F)F)c1)SC	101.3
CCN(CC)S(=O)(=O)c1ccc(C(=O)Nc2nccs2)cc1	85.6*
COCc1nc2c([nH]1)C(c1ccccc1COc1ccc(Cl)cc1)C(C#N)=C(N)O2 (stereo not drawn)	101.4
c1ccc(-c2cc3c(N4CCc5ccccc54)ncnc3s2)cc1	101.7
CC(C)Nc1ncnc2c1cnn2-c1ccc(Cl)cc1	100.1
CC(=O)Nc1nnc(SCC(=O)Nc2ccccc2)s1	100.1
N/C(CSc1ccc(Cl)cc1)=N\S(=O)(=O)c1ccc(Cl)cc1	121.0
COC(=O)c1c(C)oc2ccc(N(C(C)=O)S(=O)(=O)c3ccc4ccccc4c3)cc12	99.6
O=C(O)CC1(CC(=O)N2CCN(C(c3ccccc3)c3ccccc3)CC2)CCCC1	97.6
COc1ccccc1/C=C/C=c1\sc2nc(-c3cc(OC)c(OC)c(OC)c3)nn2c1=O	100.0
S=C(NCc1ccc2[nH]c3c(c2c1)CCCC3)Nc1ccccc1	102.9
O=C(/C=C/c1ccccc1)OCC(=O)N1CCc2ccccc21	102.7
O=c1nc(N2CCOCC2)nc(Nc2ccc3ccccc3c2)[nH]1	101.7
NC(=O)c1cc(SC(F)(F)F)cc(SC(F)(F)F)c1	96.3
SMILES	Vaccinia pol inh
CC1CCN(C(=O)CCNS(=O)(=O)c2cccc3nsnc23)CC1	98.2
COc1ccc(-n2nc(C(=O)NCC3CCCO3)c3c4ccccc4n(C)c3c2=O)cc1 (stereo not drawn)	102.7
COc1ccc2c3c(ccc2c1)-c1[nH]c2ccccc2c1CC3	100.0
NC(=O)C1CCN(C(=O)c2ccc(Oc3ccccc3)cc2)CC1	85.1
CCOC(=O)c1ccccc1NS(C)(=O)=O	100.2
Cc1ccc(C(=O)CSc2nnc(-c3snnc3C)n2C2CC2)cc1	105.5
CC1(C)N=C(SCC(=O)Nc2ccccc2)C(c2ccccc2)=N1	90.8
CCOc1ccccc1N(C)S(=O)(=O)c1cccc2cccnc12	88.8
O=C1CSc2nnc(-c3ccccc3Br)n2N1	91.7
C=CCc1cccc2cc(C(=O)NCC3CCCO3)c(=O)oc12 (stereo not drawn)	97.1
Cc1ccc(C)n1-c1ccc(C2(O)CCSc3ccccc32)cc1 (stereo not drawn)	105.0
COC(=O)c1ccc2c(c1)NC(=O)c1ccccc1S2	104.0
CC(=O)Nc1ccc2nc(NC(=O)c3cccc(F)c3)sc2c1	100.2
CCOC(=O)N1CCN(C(=O)c2ccco2)CC1	99.1
CCCN(C(=O)Cc1c(C(=O)O)n(CC)c2ccccc12)c1cccc(Cl)c1	100.0
O=c1c2ccccc2nc(SCc2ccc(Cl)cc2)n1Cc1cccs1	98.2
Cn1cc(I)c(C(=O)O)n1	99.8
COc1ccc(NC(=O)C2Cc3ccccc3C(=O)O2)cc1 (stereo not drawn)	107.6
Cc1ccc(CN2C(=O)N/C(=C\c3cn(CC(=O)N4CCOCC4)c4ccccc34)C2=O)cc1	100.4
CC(=O)NC1=NN(C(C)=O)C(c2ccccc2)S1 (stereo not drawn)	100.6
CC1Cn2cc(C(=O)NCc3ccccc3)c(=O)c3c(Cl)ccc(c32)O1 (stereo not drawn)	107.4
O=C(OCc1ccccc1)C1=NNC2C(=O)N(c3ccccc3)C(=O)C12 (stereo not drawn)	96.1
CNS(=O)(=O)c1c(I)ccc2ccccc12	96.0
CCn1cc(CCC(=O)NC2CCCC(C)C2C)c2ccccc21 (stereo not drawn)	87.4
CC(C)=CCOc1ccc2c(c1)oc(=O)c1ccccc12	91.7
SMILES	Vaccinia pol inh
CCn1c(-c2cccc(C)c2)nc2ccccc21	99.5
NC(=O)c1ncn([C@@H]2O[C@H](CO)[C@@H](O)[C@H]2O)n1	100.0
COCCN1Cc2cccc(C(=O)NC3CCCC3)c2C1=O	100.0
O=C(c1ccc2c(c1)N(Cc1ccccc1)C(=O)c1ccccc1S2(=O)=O)N1CCCCC1	96.6
CCC(C)NS(=O)(=O)c1ccc2[nH]c3c(c2c1)CCCC3 (stereo not drawn)	107.3
Brc1ccc(N=C(c2ccccc2)c2ccncc2)cc1	99.3
COC(=O)c1ccc(-n2c(C)cc(C(=O)CC#N)c2C)cc1	102.3
S=C(NCC(c1cccnc1)N1CCOCC1)Nc1ccccc1 (stereo not drawn)	97.2
Cn1cnnc1SCC(=O)Nc1ccc(Cl)cc1C(F)(F)F	92.9
O=C(O)CC(=O)Nc1ccccc1	107.9
CNC(=O)NC(=O)CSc1ncnc2sc(-c3ccccc3)cc12	97.7
Oc1ccc(-c2nc(-c3c[nH]c4ccccc34)cs2)cc1	95.0
Cc1ccc(S(=O)(=O)Nc2nc3ccccc3nc2N2CCN(c3ccccc3)CC2)cc1	97.4
NC(=O)CCN1C(=O)c2ccccc2C1=O	99.5
CC(C)c1ccc(NC(=S)NCc2ccc(C#N)cc2)cc1	103.1
COC(=O)CSc1nnc(SCc2ccc(Cl)cc2)s1	98.2
Cc1ccc(-n2nc3c(c2NC(=O)/C=C\c2ccccc2)CSC3)cc1	98.8
C[C@H]1C(=O)O[C@@H]2CCN3CC=C(COC(=O)[C@](C)(O)[C@]1(C)O)[C@H]23	100.4
